# Bioassay records: PubChem, Broad Institute
# BJeLR viab HTS – BJeLR cell viability reduction; BJeLR fibroblasts viability, CellTiterGlo ATP luminescence, 48 h; HRASV12, hTERT and SV40 LT/ST transformed; viability loss activity score, % (test concentration not listed); hit rate 0.64% among 30,000; in the data active means viability loss activity score above about 50%; about a fifth of its hits are not listed in these tables;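 further: higher score means fewer live cells and less ATP luminescence; stock transfer was 50 or 100 nL into about 30 µL; 0% = vehicle wells and 100% = a reference killing control; one replicate is shown; the record names a cut of 85%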
# A1 inh – inhibitors of A1 | MEF A1-2A-BIM cells, caspase-Glo luminescence, 3 h; percent of clofoctol signal, DMSO as zero | caspase activation, % (test concentration not listed) | hit rate 0.51% among 21,000 | AID 2241;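 active means most replicate scores above 10, or exactly half above 10 with mean activity above 10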;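 further: effector caspase 3 and 7 activity cleaving a DEVD luciferin substrate; 50 nL library stock added to about 30 µL; numbers are from one replicate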
# Numbers without * were called inactive; . = not tested or not shown. The list is partial. The share of hits here may be higher or lower than overall.
SMILES,BJeLR viab HTS,A1 inh
Cc1noc(C)c1NC(=O)Nc1cccc2c1O[C@@H](CN(C)Cc1ccc(Cl)c(Cl)c1)[C@@H](C)CN([C@@H](C)CO)C2=O,1.9,.
Cc1noc(C)c1NC(=O)Nc1cccc2c1O[C@H](CN(C)S(=O)(=O)c1cccs1)[C@@H](C)CN([C@@H](C)CO)C2=O,-0.7,.
C[C@@H]1CN([C@H](C)CO)C(=O)c2cccc(NC(=O)c3ccc(-c4nccs4)cc3)c2O[C@H]1CN(C)Cc1ccc(Oc2ccccc2)cc1,-1.3,.
COC(=O)c1ccc2c(c1)N(C)C(=O)/C(=C/c1ccccc1OC)S2,0.4,-0.8
Cc1nc2cc(-c3cccc(F)c3)nn2c(C)c1CCC(=O)Nc1ccc2c(c1)OCCO2,-16,.
CCCN(CCC)CN1C(=S)SC2=NC(=O)CCCN21,5.5,0.4
C[C@@H]1CN([C@@H](C)CO)C(=O)c2cc(NS(=O)(=O)c3ccc(F)cc3)ccc2O[C@@H]1CN(C)C(=O)Nc1ccc(C(F)(F)F)cc1,-3.4,-0.1
Cc1c(C(=O)Nc2ccccc2Cl)sc2nc3n(c(=O)c12)N=C(c1cc(O)ccc1O)CS3,1.7,0.0
CCOC(=O)c1nnc(Cc2ccc(F)cc2)o1,0.8,.
C[C@@H]1CN([C@H](C)CO)C(=O)c2cc(NC(=O)CCCN(C)C)ccc2O[C@H]1CN(C)C(=O)Nc1ccccc1,-3.8,-0.2
Cc1cc2ccccc2c(=O)n1CC(=O)NCC(=O)N(C)C1CCCCC1,-3.0,.
COc1ccccc1C1CCN(C(=O)C2CCCCC2)CC1,-0.1,0.4
N=C(N)SCCN1C(=O)c2ccccc2C1=O,-3.4,0.1
COC(=O)C1=CO[C@@H](O[C@@H]2O[C@H](CO)[C@@H](O)[C@H](O)[C@H]2O)[C@@H]2[C@@H](C)[C@@H](OC(=O)C3=CO[C@@H](O[C@@H]4O[C@H](CO)[C@@H](O)[C@H](O)[C@H]4O)[C@@H]4[C@@H](C)[C@@H](OC(C)=O)C[C@H]34)C[C@H]12,-1.9,0.3
C[C@@H]1CN([C@H](C)CO)C(=O)c2cccc(NC(=O)C3CCOCC3)c2O[C@@H]1CN(C)Cc1ccc2c(c1)OCO2,-1.7,.
c1ccc(N=c2oc3ccccc3cc2-c2nc3ccccc3[nH]2)cc1,12,.
O=C(COc1ccccc1)Nc1ccc(C(=O)c2ccccc2)cc1,-5.1,-1.5
CC(C)NC(=O)Nc1cccc2c1O[C@H](CN(C)S(=O)(=O)c1ccc(F)cc1)[C@H](C)CN([C@H](C)CO)C2=O,-3.8,.
CC(C)(C)C(=O)NCC(c1cccnc1)N1CCN(c2ccccc2)CC1 (stereo unspecified),-2.9,0.8
COc1ccc(NC(=O)Nc2cccc3c2O[C@@H](CN(C)Cc2ccc(-c4ccccc4)cc2)[C@@H](C)CN([C@H](C)CO)C3=O)cc1,-5.8,.
COc1cc(C)nc(OCCNS(=O)(=O)c2cc(C)ccc2C)n1,2.0,1.7
O=C(Cc1ccccc1)Nc1ccc(Cl)c(Cl)c1,3.5,-1.0
C[C@H]1CN([C@@H](C)CO)C(=O)c2cc(NC(=O)Nc3ccc4c(c3)OCO4)ccc2O[C@H]1CN(C)C(=O)NC1CCCCC1,0.6,0.7
O=C(NC1CCCCCC1)c1ccc2c(=O)n3c(nc2c1)CCCCC3,-2.8,-5.5
N#CCSc1nc2ccc(N3CCOCC3)cc2c(=O)n1CCc1ccccc1,0.4,-0.6

# Next compounds
SMILES,BJeLR viab HTS,A1 inh
Cc1ccc(NC(=O)c2oc3ccc(S(=O)(=O)N(C)C4CCCCC4)cc3c2C)cc1C,-1.3,-0.5
Cc1ccc(S(=O)(=O)/C(C#N)=C/c2sccc2C)cc1,-2.2,-0.5
Cc1c(C(=O)O)oc2ccccc12,-5.4,-1.0
C[C@H](CO)N1C[C@H](C)[C@@H](CN(C)Cc2ccc(-c3ccccc3)cc2)Oc2ccc(N(C)C)cc2C1=O,0.1,-0.2
CCN1C(=O)N/C(=C/c2cn(Cc3ccccc3)c3ccccc23)C1=O,5.8,.
C[C@@H]1CN([C@@H](C)CO)C(=O)c2cc(NC(=O)C3CCCCC3)ccc2O[C@@H]1CN(C)C(=O)NC1CCCCC1,2.5,-0.1
C[C@H]1CN([C@@H](C)CO)C(=O)c2cccc(NC(=O)Nc3ccc4c(c3)OCO4)c2O[C@@H]1CN(C)S(=O)(=O)c1cn(C)cn1,2.2,.
Cc1ccc(CNC(=O)Cn2c(=O)n(-c3ccc(C)c(C)c3)c(=O)c3c(C)c(C)sc32)cc1,-8.4,.
Cc1noc(C)c1NC(=O)Nc1cccc2c1O[C@@H](CN(C)C(=O)Nc1cccc3ccccc13)[C@H](C)CN([C@@H](C)CO)C2=O,-4.1,.
COC(=O)/C=c1\sc2n(c1=O)CCN=2,-3.7,0.9
COc1ccc(NC(=O)N(C)C[C@H]2Oc3c(NC(=O)c4cc(C)nn4C)cccc3C(=O)N([C@H](C)CO)C[C@H]2C)cc1,5.2,.
Cc1ccc(S(=O)(=O)Nc2cccc3c2O[C@H](CN(C)C(=O)NC(C)C)[C@H](C)CN([C@H](C)CO)C3=O)cc1,-1.8,.
Cc1ccc(S(=O)(=O)Nc2ccc3c(c2)C(=O)N([C@H](C)CO)C[C@H](C)[C@@H](CN(C)S(=O)(=O)c2ccc(Cl)cc2)O3)cc1,1.4,-0.7
Cc1ccc(S(=O)(=O)N(C)C[C@H]2Oc3ccc(NS(=O)(=O)c4c(C)noc4C)cc3C(=O)N([C@@H](C)CO)C[C@H]2C)cc1,2.1,-0.4
CCn1c(C(=O)O)c(CC(=O)Nc2ccccc2F)c2ccccc21,2.8,0.0
OC1CCC(n2c(-c3ccccc3)nc(=S)c3c2CCCC3)CC1 (stereo unspecified),0.0,.
CSC(=NCc1ccccc1)Nc1cc(-c2ccccc2)[nH]n1,-1.6,0.7
Cc1cc(C(=O)NCc2cccn2C)nn1C,0.1,0.7
Cc1ccc(S(=O)(=O)Nc2ccc3c(c2)C(=O)N([C@@H](C)CO)C[C@@H](C)[C@H](CN(C)S(=O)(=O)c2ccc(C)cc2)O3)cc1,0.6,0.9
CCc1ccc(NS(=O)(=O)c2ccc(OC)cc2)cc1,3.4,-1.4
CCN(c1ccccc1)S(=O)(=O)c1ccc(C)cc1,2.0,-1.6
CC(C)NC(=O)N(C)C[C@@H]1Oc2c(NC(=O)c3nc4ccccc4s3)cccc2C(=O)N([C@H](C)CO)C[C@H]1C,-1.0,.
C[C@@H]1CN([C@@H](C)CO)C(=O)c2cc(NC(=O)Cn3cnnn3)ccc2O[C@@H]1CN(C)S(=O)(=O)c1ccc(Cl)cc1,-1.0,0.0
COc1ccc(NC(=O)N(C)C[C@H]2Oc3c(NC(=O)Nc4ccccc4)cccc3C(=O)N([C@H](C)CO)C[C@H]2C)cc1,0.1,.
Cc1cc(C)cc(CC(CC(=O)O)C(=O)NCc2ccccc2)c1 (stereo unspecified),-4.6,-0.6

# Single records (already shown). Values in the order: BJeLR viab HTS, A1 inh
# Cc1ccc(S(=O)(=O)N(C)C[C@H]2Oc3ccc(NS(=O)(=O)c4c(C)noc4C)cc3C(=O)N([C@@H](C)CO)C[C@H]2C)cc1 is entered as 2.1, -0.4
# Cc1ccc(S(=O)(=O)Nc2cccc3c2O[C@H](CN(C)C(=O)NC(C)C)[C@H](C)CN([C@H](C)CO)C3=O)cc1 is entered as -1.8, .
# Cc1cc(C)cc(CC(CC(=O)O)C(=O)NCc2ccccc2)c1 (stereo unspecified) is entered as -4.6, -0.6
# CC(C)NC(=O)N(C)C[C@@H]1Oc2c(NC(=O)c3nc4ccccc4s3)cccc2C(=O)N([C@H](C)CO)C[C@H]1C is entered as -1.0, .
# C[C@@H]1CN([C@@H](C)CO)C(=O)c2cc(NC(=O)Cn3cnnn3)ccc2O[C@@H]1CN(C)S(=O)(=O)c1ccc(Cl)cc1 is entered as -1.0, 0.0

# Continuation:
SMILES,BJeLR viab HTS,A1 inh
CC(C)C[C@H](NC(=O)[C@@H](O)[C@H](N)Cc1ccccc1)C(=O)O,-4.4,0.6
Cc1noc(C)c1NC(=O)N(C)C[C@@H]1Oc2ccc(NS(=O)(=O)c3ccccc3)cc2C(=O)N([C@H](C)CO)C[C@H]1C,-3.2,-0.2
CCN1CCCC1CNC(=O)C(NC(=O)c1ccc(C23CC4CC(CC(C4)C2)C3)cc1)C(C)C (stereo unspecified),2.9,.
C[C@H](CO)N1C[C@H](C)[C@@H](CN(C)Cc2ccc(-c3ccccc3)cc2)Oc2c(NS(=O)(=O)c3ccccc3)cccc2C1=O,-0.2,.
C[C@@H]1CN([C@H](C)CO)C(=O)c2cccc(NC(=O)NC3CCCCC3)c2O[C@@H]1CN(C)C(=O)Nc1ccc(F)cc1,3.6,.
CSc1nsc(SC)c1C(=O)NC(=O)N1CCSCC1,0.6,-0.4
CC(C)(C)NC(=O)[C@H]1CC[C@H]2[C@@H]3CC[C@H]4NC(=O)C=C[C@]4(C)[C@H]3CC[C@]12C,5.4,0.3
CCN(CC)c1ccc(/C=c2\sc3ncnn3c2=O)cc1,-4.7,.
COc1ccc(C2CC(=O)C3=C(C2)Nc2ccccc2N(C(C)=O)C3c2ccccc2)cc1 (stereo unspecified),2.1,-0.4
C[C@H](CO)N1C[C@H](C)[C@H](CN(C)Cc2ccc(Cl)c(Cl)c2)Oc2c(NC(=O)c3ccncc3)cccc2C1=O,4.4,.
Cc1ccc(N2C(=O)C(N3C(=O)c4ccccc4C3=O)C2c2ccc(N(C)C)cc2)cc1Cl (stereo unspecified),2.7,0.8
CN(Cc1ccccc1)c1nc2c(c(=O)n(C)c(=O)n2C)n1CCSc1nc2ccccc2o1,16,.
O=C(CCS(=O)(=O)c1cccs1)NC1CCCc2ccccc21 (stereo unspecified),4.2,.
C[C@@H]1CN([C@H](C)CO)C(=O)c2cc(NC(=O)CCC(F)(F)F)ccc2O[C@@H]1CN(C)CC1CCCCC1,6.8,0.2
C[C@@H]1CN([C@@H](C)CO)C(=O)c2cc(NS(=O)(=O)c3ccccc3)ccc2O[C@@H]1CN(C)Cc1ccc(Cl)c(Cl)c1,-3.9,-0.9
Cc1oc(-c2cccc(Cl)c2)nc1CS(=O)(=O)CC(=O)NCc1ccccc1,-6.1,0.4
COc1ccc2c(c1OC)CN(C)CCc1cc3c(cc1C(=O)C2)OCO3,-4.6,-0.9
C[C@@H]1CN([C@@H](C)CO)C(=O)c2cccc(NC(=O)C3CCCCC3)c2O[C@H]1CN(C)CC1CCCCC1,-3.6,.
COC(=O)C1=C(C)N(c2ccccc2Cl)C(=O)/C1=C\c1cccs1,-3.0,.
CC(C)NC(=O)N(C)C[C@H]1Oc2c(NS(C)(=O)=O)cccc2C(=O)N([C@@H](C)CO)C[C@@H]1C,1.7,.
CCc1ccc2ncc(S(=O)(=O)c3ccccc3)c(N3CCCCC3)c2c1,-4.0,-0.4
CCc1ccccc1NC(=S)N(CCN(C)C)Cc1cccs1,0.2,.
Cc1ccc(-c2noc(CN(C(=O)C(c3ccccc3)c3ccccc3)C(C)C)n2)cc1,-2.1,.
Cc1ccc(S(=O)(=O)Nc2cccc3c2O[C@@H](CN(C)CC2CC2)[C@H](C)CN([C@H](C)CO)C3=O)cc1,-4.3,.
Cc1cc(C)c(-n2c(SCc3nc4ccccc4s3)n[nH]c2=O)c(C)c1,0.1,0.4

# 3 compounds drawn at random from those above, as already listed:
SMILES,BJeLR viab HTS,A1 inh
COC(=O)C1=C(C)N(c2ccccc2Cl)C(=O)/C1=C\c1cccs1,-3.0,.
CCN1CCCC1CNC(=O)C(NC(=O)c1ccc(C23CC4CC(CC(C4)C2)C3)cc1)C(C)C (stereo unspecified),2.9,.
C[C@H](CO)N1C[C@H](C)[C@H](CN(C)Cc2ccc(Cl)c(Cl)c2)Oc2c(NC(=O)c3ccncc3)cccc2C1=O,4.4,.

# Next entries follow:
SMILES,BJeLR viab HTS,A1 inh
C=CCn1c(CSc2nnc(-c3ccccc3)n2C)n[nH]c1=S,4.7,-0.7
CCOc1cc(/C=C2\SC(=S)NC2=O)cc(Cl)c1OC(=O)c1ccc(OC)cc1,0.1,-0.1
COc1cc(O)c2c(=O)c(OC)c(-c3ccc(OC)c(OC)c3)oc2c1,-5.9,-0.5
O=C(COC(=O)C(Cc1ccccc1)N1C(=O)c2ccccc2C1=O)c1ccc(Br)cc1 (stereo unspecified),-6.4,.
CCc1ccc(OCC(N)=O)cc1,-7.8,0.3
COc1ncnc(NS(=O)(=O)c2ccc(N)cc2)c1OC,10,-0.5
C[C@H](CO)N1C[C@H](C)[C@H](CN(C)Cc2ccc(Oc3ccccc3)cc2)Oc2ccc(NC(=O)CCN3CCOCC3)cc2C1=O,-3.1,0.1
Cc1noc(C)c1NC(=O)N(C)C[C@H]1Oc2c(NC(=O)c3cnccn3)cccc2C(=O)N([C@H](C)CO)C[C@H]1C,1.7,.
CCCCN(C)c1sc(S(C)(=O)=O)nc1S(=O)(=O)c1ccc(C)cc1,1.3,0.1
CNC[C@@H]1Oc2ccc(NS(=O)(=O)c3cn(C)cn3)cc2C(=O)N([C@@H](C)CO)C[C@@H]1C,-1.4,-0.5
CC(C)NC(=O)Nc1ccc2c(c1)C(=O)N([C@@H](C)CO)C[C@H](C)[C@@H](CN(C)S(=O)(=O)c1ccccc1)O2,-3.4,0.5
Cc1noc(C)c1S(=O)(=O)Nc1cccc2c1O[C@H](CN(C)S(C)(=O)=O)[C@H](C)CN([C@@H](C)CO)C2=O,2.2,.
CCN1C(=O)/C(=C2\SC(=S)N(c3ccc(OC)cc3)C2=O)c2ccccc21,1.5,3.0
O=C(Nc1scc2c1c(=O)oc1ccccc12)c1ccccc1,-1.7,0.2
C[C@@H]1CN([C@H](C)CO)C(=O)c2cccc(NC(=O)c3cnccn3)c2O[C@@H]1CN(C)C(=O)Nc1cccc2ccccc12,3.3,.
COc1ccc(CC(=O)n2nc(-c3ccc(Cl)cc3)nc2NCc2ccco2)cc1OC,7.4,.
